# AmpC inh no det – inhibitors of E. coli AmpC beta-lactamase without detergent; AmpC nitrocefin hydrolysis, absorbance 480 nm, no detergent; potencies from a single point are estimates; Potency, µM (series often up to 28.7 µM), for inactives: at the top dose activity change, negative = inhibition; P00811; 71,000 tested, 1.8% active; active = falling curve, for most hits resting on a single point; inconclusive = weak or doubtful change; inactive = flat or rising curve; further: % of control where 0% means no effect; about half of the hits show no inhibition at the top dose; a quarter of the inactives give rising signals
# Target sequence (P00811 whole entry, looked up): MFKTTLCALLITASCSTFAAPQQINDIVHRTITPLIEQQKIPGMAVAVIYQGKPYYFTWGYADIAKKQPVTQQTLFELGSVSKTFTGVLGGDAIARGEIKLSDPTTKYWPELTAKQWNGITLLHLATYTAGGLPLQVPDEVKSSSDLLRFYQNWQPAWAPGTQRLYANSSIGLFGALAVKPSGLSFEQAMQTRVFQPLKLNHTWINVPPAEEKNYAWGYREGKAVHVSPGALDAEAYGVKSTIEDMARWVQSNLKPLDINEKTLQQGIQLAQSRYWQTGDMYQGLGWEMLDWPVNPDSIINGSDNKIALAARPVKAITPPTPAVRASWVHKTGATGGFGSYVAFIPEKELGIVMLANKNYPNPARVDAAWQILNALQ
#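 AmpC, 20 mM phosphate pH 7.0; 15 min cpd preinc, RT; start with nitrocefin (800 uM stock); A480 kinetic read, 20 s intervals, 4 min. No-enzyme wells = negative control.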
# * marks the source's active call; other numbers are inactive results; & = joins results of further samples; [ ] = dose if it differs, or a comment. Potency means the concentration at half of the fitted maximal effect. Some of the compounds tested; count on the stated rates, not on these rows.
SMILES,AmpC inh no det
COc1cc(NC(=O)CN2C(=O)c3ccccc3C2=O)c(C(=O)O)cc1OC,-11%
Cn1cccc1C(=O)N1CCC2(CCN(Cc3ccc(C#N)cc3)CC2)CC1,32%
O=C1NCCc2c1[nH]c1c(Cl)ccc(Cl)c21,-1%
CCOC(=O)N1CCC(NC(=O)CCc2c(C)nc3c(c(C)nn3C(C)(C)C)c2C)CC1,142%
CC1CCCCN1C(=O)Cc1ccc(Cl)cc1 (stereo unspecified),16%
O=C(c1cc(Br)ccc1Cl)N1CCC2(CC1)OCCO2,6%
O=C(NCc1ccncc1)Nc1ccccc1Cl,0%
O=c1sc(Nc2ccccc2)nc2ccsc12,-14%
COC(=O)C1CCN(C(=O)COC(=O)Cc2c[nH]c3ccccc23)CC1,50%
O=C(Nc1ccccc1)N(Cc1cccs1)C1CCCC1,11%
CCOc1cc(S(=O)(=O)N2CC=C(c3ccc(F)cc3)CC2)c(OCC)cc1-n1cnnn1,37%
Cc1noc(C)c1-c1ccc2ncnc(N3CCN(C)CC3)c2c1,14%
COCCN(Cc1cc2cc3c(cc2n2nnnc12)OCO3)C(=O)c1ccccc1F,26%
CC1=C(C(=O)N2CCOCC2)C(c2ccccc2F)C2=C(CCCC2=O)N1 (stereo unspecified),1%
COC(=O)c1ccc(C(NC(=O)OCc2ccccc2)/C(C)=C/[C@@H](C)C(=O)NCc2cccnc2)cc1 (stereo partly specified),117%
N=C(N)SCCN,17%&-11%
COC(=O)c1[nH]c2cccc(C)c2c1NC(=O)CN1CCN(c2ccccc2OC)CC1,153%
CC(=O)Nc1ccc(S(=O)(=O)N2CCSC2c2ccc(C)cc2)cc1 (stereo unspecified),42%
CCCN1C(=O)/C(=C2\SC(N3CCCCC3)=NC2=O)c2ccccc21,147%
Cc1cc(N2CCOCC2)nc(SCC(=O)c2ccccc2)n1,22%
O=C(CSc1nnc(-c2ccccc2O)o1)Oc1ccc(OCc2ccccc2)cc1,13µM*[single pt active]
O=C(c1ccco1)N1CCN(C(c2ccccc2F)c2nnnn2CC2CCCO2)CC1 (stereo unspecified),38%
CCOc1ncccc1C(=O)Nc1cccc(C(=O)Nc2cccc(S(=O)(=O)CCO)c2)c1,70%
Cc1oc(-c2ccccc2)nc1CS(=O)CC(=O)N1CCc2ccccc2C1 (stereo unspecified),76%
Cc1ccc2nc(SCC(=O)NCc3ccco3)c(C#N)cc2c1,16µM*[single pt active]

# Part of the list above, as labelled records.
O=c1sc(Nc2ccccc2)nc2ccsc12
  AmpC inh no det: -14%
Cc1oc(-c2ccccc2)nc1CS(=O)CC(=O)N1CCc2ccccc2C1 (stereo unspecified)
  AmpC inh no det: 76%

# Other records follow.
SMILES,AmpC inh no det
COC(=O)Cc1cc(=O)n(-c2nc3ccccc3s2)[nH]1,-10%
COc1ccc(NC(=O)Cn2nnc(C(=O)NCc3ccccc3OC)c2N)cc1Cl,-21%
CC(C)CN1CCC2(CC1)CCN(C(=O)c1cccn1C)CC2,4%
COc1ccc(NC(=O)CC2C(=O)N(c3ccc(OC)cc3)C(=O)N2CCN2CCN(C)CC2)cc1 (stereo unspecified),11%
CCNc1ncc2nc(-c3cc(F)cc(F)c3)c(=O)n(Cc3ccc(F)cc3)c2n1,-6%
CC1(C)c2ccccc2N2CCC(=O)NC21/C=C/c1ccco1 (stereo unspecified),34%
CC(C)CCNC(=O)c1cccc(Cl)c1,-4%
CC(CCc1ccc(O)cc1)N(C)CCc1ccccc1 (stereo unspecified),-7%
CCOC(=O)N1CCN(C(=O)CC(C(=O)N2CCc3ccccc32)n2ccnc2)CC1 (stereo unspecified),69%
CCCC(=O)Nc1cc(C)c(NC(=O)C23CC4CC(CC(C4)C2)C3)cn1,12%
Cc1cc(N2C(=O)CC(N3CCN(C(c4ccccc4)c4ccccc4)CC3)C2=O)no1 (stereo unspecified),112%
CCOc1ccc(N(CC(=O)Nc2ccc3c(c2)OCCO3)S(=O)(=O)c2c(C)noc2C)cc1,24%
CCC(c1nnnn1CS(=O)(=O)c1ccc(C)cc1)N1CCN(c2nc3ccccc3s2)CC1 (stereo unspecified),51%
CCCNC(=O)c1cc(S(=O)(=O)N2CCc3ccccc32)ccc1F,2%
COCCN(Cc1cc2cc3c(cc2[nH]c1=O)OCO3)C(=O)c1cccs1,1%
CCC1CCC2(CC1)NC(CO)(CO)CO2 (stereo unspecified),-2%
NC(Cc1ccccc1)(C(=O)O)C(=O)O,-7%[5.75 µM]
Cc1ccc(/C=N/n2c(C)nnc2C)s1,-6%
O=C(c1cc(-c2ccc(Cl)c(Cl)c2)on1)N1CCCC1,-3%
c1cn(C23CC4CC(CC(C4)C2)C3)cn1,10%
CCOc1ccc(C(=O)Nc2cc(C)c3c(=O)oc4ccccc4c3n2)cc1,10%
O=C(/C=N/O)Nc1ccc(F)cc1,0%
O=C1NC(=O)C(CCc2ccncc2)(c2ccccc2)C(=O)N1,-2%
CCOC(=O)N1CCC(NC(=O)C(CC(C)C)NC(=O)C2CCCCC2)CC1 (stereo unspecified),43%
CC1CCCN(C(=O)C2CCN(S(=O)(=O)c3cccc4cccnc34)CC2)C1 (stereo unspecified),34%
# (cont.)
SMILES,AmpC inh no det
CCOC(=O)/C(C#N)=C1/C=Cc2ccccc2N1CC,8%
COc1ccc(CCN2C(=O)CC(N3CCN(c4ccccn4)CC3)C2=O)cc1OC (stereo unspecified),43%
CCOc1ccc2nc(SC(C)C(N)=O)[nH]c2c1 (stereo unspecified),-6%
CCc1nc(SCc2cccnc2)c2c(=O)n(C)c(=O)n(C)c2n1,7%
COC(=O)c1ccc(C2c3c(oc4ccc(F)cc4c3=O)C(=O)N2CCO)cc1 (stereo unspecified),44%
O=C(Nc1ccc(N2CCCCC2)c(Cl)c1)c1cccnc1,25%
c1cncc(CNc2ncncc2-c2ccoc2)c1,46%
COc1cc(C2/C(=C(/O)c3ccc(OCC(C)C)cc3)C(=O)C(=O)N2CCN(C)C)ccc1O (stereo unspecified),0%
CC(=O)N1CC2(CC(=O)OC(C)C)CN(C(C)=O)CC(CC(=O)OC(C)C)(C1)C2=O,10%
CCNc1ccc2c(Cl)cc(=O)oc2c1,-9%
COC(=O)N1CCC2(CCCN(c3ncccn3)C2)CC1,-1%
CCc1cc2c(NCCC(=O)O)ncnc2s1,0%
Cc1ccc2cccc(OCC(=O)NCc3ccco3)c2n1,12%
Cn1c(SCc2ccccc2)nnc1-c1ccc2c(c1)OCO2,8%
C[C@@H](CSC(=N)N)C(N)=O,-7%[5.75 µM]
CCOC(=O)c1ccc(CNS(=O)(=O)c2c(C)ccc3nsnc23)o1,6%
C[C@]12CC[C@H](O)C[C@@H]1CC[C@H]1[C@H]2CC[C@]2(C)C(=O)CC[C@@H]12,19%[12.8 µM]
Cc1oc2c(CN(C)C)c(O)ccc2c(=O)c1-c1cscn1,-7%
CCN1CCN(C(=O)c2ccc3c(c2)N(Cc2ccc(F)cc2)C(=O)c2ccccc2S3=O)CC1 (stereo unspecified),137%
Cc1ccc(C(=O)CCNc2cccc(Br)c2)o1,-8%
COc1ccc(C)cc1NC(=O)C1C2C=CC(C2)C1C(=O)O (stereo unspecified),-2%
COc1ccc(CN(CCN2CCOCC2)C(=O)c2c(F)cccc2F)cc1OC,44%
CCN(CC)CCCCn1c(-c2ccccc2)nc2c(N(CCOC)CCOC)nc(C)nc21,61%
N[C@@H](CSCc1ccccc1)C(=O)O,5%[5.75 µM]
Cc1ccc(-c2nc3ncccc3o2)cc1NC(=O)c1cc2ccccc2o1,-4%
COc1cccc(Nc2nc(-c3sc(N)nc3C)cs2)c1,-5%
Cc1nnc(SCCn2c(N3CCCCCC3)nc3c2c(=O)[nH]c(=O)n3C)s1,16%
Cc1ccc(CN2C(=O)CCC2C(=O)NCCN2CCN(c3cccc(Cl)c3)CC2)cc1 (stereo unspecified),140%
Cc1cc(Cc2cc(C)c(N)cc2N)c(N)cc1N,3%[5.75 µM]
COc1ccccc1Nc1ncc(C(C)=O)c(C)n1,-1%

# In the list so far, 23 have four or more nitrogen atoms.
SMILES,AmpC inh no det
Cn1cccc1C(=O)N1CCC2(CCN(Cc3ccc(C#N)cc3)CC2)CC1,32%
CCOC(=O)N1CCC(NC(=O)CCc2c(C)nc3c(c(C)nn3C(C)(C)C)c2C)CC1,142%
CCOc1cc(S(=O)(=O)N2CC=C(c3ccc(F)cc3)CC2)c(OCC)cc1-n1cnnn1,37%
Cc1noc(C)c1-c1ccc2ncnc(N3CCN(C)CC3)c2c1,14%
COCCN(Cc1cc2cc3c(cc2n2nnnc12)OCO3)C(=O)c1ccccc1F,26%
COC(=O)c1[nH]c2cccc(C)c2c1NC(=O)CN1CCN(c2ccccc2OC)CC1,153%
O=C(c1ccco1)N1CCN(C(c2ccccc2F)c2nnnn2CC2CCCO2)CC1 (stereo unspecified),38%
COc1ccc(NC(=O)Cn2nnc(C(=O)NCc3ccccc3OC)c2N)cc1Cl,-21%
COc1ccc(NC(=O)CC2C(=O)N(c3ccc(OC)cc3)C(=O)N2CCN2CCN(C)CC2)cc1 (stereo unspecified),11%
CCNc1ncc2nc(-c3cc(F)cc(F)c3)c(=O)n(Cc3ccc(F)cc3)c2n1,-6%
CCOC(=O)N1CCN(C(=O)CC(C(=O)N2CCc3ccccc32)n2ccnc2)CC1 (stereo unspecified),69%
Cc1cc(N2C(=O)CC(N3CCN(C(c4ccccc4)c4ccccc4)CC3)C2=O)no1 (stereo unspecified),112%
CCC(c1nnnn1CS(=O)(=O)c1ccc(C)cc1)N1CCN(c2nc3ccccc3s2)CC1 (stereo unspecified),51%
Cc1ccc(/C=N/n2c(C)nnc2C)s1,-6%
COc1ccc(CCN2C(=O)CC(N3CCN(c4ccccn4)CC3)C2=O)cc1OC (stereo unspecified),43%
CCc1nc(SCc2cccnc2)c2c(=O)n(C)c(=O)n(C)c2n1,7%
c1cncc(CNc2ncncc2-c2ccoc2)c1,46%
COC(=O)N1CCC2(CCCN(c3ncccn3)C2)CC1,-1%
CCN(CC)CCCCn1c(-c2ccccc2)nc2c(N(CCOC)CCOC)nc(C)nc21,61%
COc1cccc(Nc2nc(-c3sc(N)nc3C)cs2)c1,-5%
Cc1nnc(SCCn2c(N3CCCCCC3)nc3c2c(=O)[nH]c(=O)n3C)s1,16%
Cc1ccc(CN2C(=O)CCC2C(=O)NCCN2CCN(c3cccc(Cl)c3)CC2)cc1 (stereo unspecified),140%
Cc1cc(Cc2cc(C)c(N)cc2N)c(N)cc1N,3%[5.75 µM]
